Beta2AR agonist: human beta-2 adrenergic receptor agonism by FAP | P07550 | Am2.2-beta2AR cells, FAP receptor internalization, flow cytometry; reference of the scale not given here | response, % (test concentration not listed) | 340,000 compounds, 0.43% hits | AID 504454;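 active = response above a set limit, near 3 SD of response in nonfluorescent compounds, cut at about 42% in these data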;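 also: stock transfer was 100 nL into about 11 µL; a reference agonist was the positive control; negative values mostly stem from fluorescent compounds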
Target sequence (P07550 whole entry, looked up): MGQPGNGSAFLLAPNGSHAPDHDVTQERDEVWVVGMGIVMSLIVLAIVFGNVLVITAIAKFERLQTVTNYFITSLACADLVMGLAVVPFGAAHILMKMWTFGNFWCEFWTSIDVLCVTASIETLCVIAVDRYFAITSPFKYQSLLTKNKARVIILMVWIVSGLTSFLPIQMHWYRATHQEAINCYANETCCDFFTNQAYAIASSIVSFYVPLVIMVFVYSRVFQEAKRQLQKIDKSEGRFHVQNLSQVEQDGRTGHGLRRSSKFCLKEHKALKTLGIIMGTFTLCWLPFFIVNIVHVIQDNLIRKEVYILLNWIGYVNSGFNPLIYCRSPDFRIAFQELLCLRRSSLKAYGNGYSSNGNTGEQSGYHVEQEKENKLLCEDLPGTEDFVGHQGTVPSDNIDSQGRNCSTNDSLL
rRNA inh HTS: selective bacterial rRNA inhibition in E. coli. GFP signal change (wild-type ribosome), % (concentration not given with the values). E. coli WT GFP vs humanized-ribosome RFP mutants, fluorescence, 24 h; active compounds read low; DMSO median 0, no signal -100. AID 720706. 350,000 compounds, 1.6% hits;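 active = significant combined selectivity score with lowered wild-type GFP, culture density cut under 30%, mutant RFP and density less affected; inactive = any of these conditions unmet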; also: one replicate is shown; some compounds called inactive have numbers as strong as hits
UCH37 DUB inh: blocks the human deubiquitinase UCH37 | Q9Y5K5 | purified proteasome/UCH37, Ub-AMC cleavage fluorescence | inhibition, % (concentration not given with the values) | 330,000 compounds, 0.33% hits;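 active = mean of two replicates above 20%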;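 also: 0% = compound-free wells with enzyme and 100% = wells lacking proteasome; stock transfer was 100 nL into about 20 µL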
Target sequence (Q9Y5K5 whole entry, looked up): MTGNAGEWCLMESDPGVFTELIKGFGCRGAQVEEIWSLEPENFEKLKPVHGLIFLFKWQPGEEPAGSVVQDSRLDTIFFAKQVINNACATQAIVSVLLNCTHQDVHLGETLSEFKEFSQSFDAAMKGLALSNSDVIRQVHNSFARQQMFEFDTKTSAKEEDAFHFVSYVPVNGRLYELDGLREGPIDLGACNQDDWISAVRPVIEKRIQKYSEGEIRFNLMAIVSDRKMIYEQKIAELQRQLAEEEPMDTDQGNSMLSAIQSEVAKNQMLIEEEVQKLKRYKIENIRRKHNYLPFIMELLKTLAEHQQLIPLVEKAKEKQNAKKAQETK
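Material: human UCH37 enzyme supplied as purified proteasome complex / Amount: 0.15 nM proteasome as dispensed / Buffer or medium: pH 7.4 Tris-HCl (50 mM) with ovalbumin, ATP-MgCl2, DTT / Times: preincubation 30 min, reaction 25 min, room temperature / Technique: AMC fluorescence from Ub-AMC cleavage, excitation 355 nm, emission 460 nm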
Ecoli growth: E. coli growth inhibition | Escherichia coli growth, OD600, 23 h; active compounds read low | OD600 absorbance (no concentration beside the values) | 330,000 compounds, 0.21% hits | AID 1053175;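 active = OD600 absorbance below the run mean of sample wells minus 3.6 SD, in any replicate, cut at about 0.56 in these data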;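 also: stock transfer was 300 nL into about 60 µL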
FGF22 binding: binders of recombinant human FGF22 by thermal shift; AID 651658; 340,000 compounds, 1.5% hits; SYPRO orange fluorescence; percent of sucrose octasulfate shift, DMSO zero; calls only at 9.99 µM;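 active = melting point raised past a set limit in the mean and every replicate; three in four hits are not shown here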
Target sequence (Q9HCT0 whole entry, looked up): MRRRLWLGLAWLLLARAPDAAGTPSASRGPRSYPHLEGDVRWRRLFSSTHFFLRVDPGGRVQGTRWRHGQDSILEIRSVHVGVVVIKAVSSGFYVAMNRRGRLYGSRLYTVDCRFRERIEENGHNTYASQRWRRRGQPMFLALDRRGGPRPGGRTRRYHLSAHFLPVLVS
ALR inh: inhibitors of human sulfhydryl oxidase ALR; purified ALR, DTT oxidation, H2O2 HRP-luminol luminescence; inhibition, % (concentration not given with the values); 290,000 compounds, 3.8% hits; AID 485317;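 active = mean and each replicate at 75% or more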;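 also: stock transfer was 7.5 nL into about 7.5 µL; 0% = neutral wells and 100% = wells with inactivated enzyme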
HNF4A DNA FP: change in binding of human HNF4 alpha to DNA. P41235. HNF4a-FITC DNA binding, fluorescence polarization, 1 h. activity change, % at 10 µM. 360,000 compounds, 0.3% hits. AID 1224865; in the data active = activity change above about 30%, passing the limit was not always enough;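 also: controls were the assay level and a saturating level of protein; the project sought stronger binding though the title names inhibitors; some compounds called inactive have numbers as strong as hits; positive values seem to mean higher polarization but the record does not say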
rRNA inh HTS OD600: further read-out of rRNA inh HTS, marked with its call; OD600 change, %; measured here: OD600 growth;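 optical density of the mix in the first replicate; 0 = DMSO median and -100 = no signal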
rRNA inh HTS RFP: also measured in rRNA inh HTS; calls as there; RFP signal change, %; measured here: RFP humanized mutant strains;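 first replicate; 0 = DMSO median and -100 = no signal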
Numbers without * were called inactive; i = inactive; · = no result given; + = active, no number. An excerpt; count on the stated rates, not on these rows.

SMILES	Beta2AR agonist	rRNA inh HTS	rRNA inh HTS OD600	rRNA inh HTS RFP	UCH37 DUB inh	Ecoli growth	FGF22 binding	ALR inh	HNF4A DNA FP
O=C1N/C(=N/NC(=O)c2cccc3ccccc23)S/C1=C\c1ccccc1OCc1ccccc1	3.9	·	·	·	1.6	0.778	·	·	-11.2
CN(C)S(=O)(=O)c1ccc(NC(=O)CSc2nnc(-c3ccco3)n2N)cc1	-11.0	6.7	8.0	2.1	0.9	0.645	·	·	1.7
COc1cc(C(C)=O)ccc1Oc1ncccn1	2.4	4.8	15.1	0.9	6.6	0.681	i	-0.9	2.1
CCCC(=O)Nc1ccc2c(c1)COC2=O	7.5	16.6	8.7	0.2	3.1	0.696	i	·	1.4
CN(Cc1cccs1)C(=O)COC(=O)CNC(N)=O	0.2	11.1	8.4	4.0	0.6	0.639	i	-6.6	-2.1
O=C(NCc1ccc(F)cc1)c1cc2c(cc1Cl)N1CCCCCC1=NS2(=O)=O	-4.3	1.1	5.4	-3.0	3.4	0.671	i	0.5	-2.5
CCOC(=O)c1cn2nc(N3CCCC3)ccc2n1	-16.5	6.5	11.0	-0.8	-0.2	0.658	i	-3.6	-1.4
O=C(c1ccc(-n2cnnn2)cc1)N(C1CCCCC1)C1CCCCC1	-0.9	0.4	2.2	-2.3	2.4	0.691	i	-0.4	0.3
O=C(c1ccccc1F)N1CCN(c2ccccc2)CC1	-1.5	·	·	·	-3.0	0.7	·	51.4	4.6
CCOc1ccc(C(=O)NCC2CCCO2)cc1 (stereo unspecified)	15.8	·	·	·	1.5	0.683	·	-0.4	-0.4
CCc1nc(Nc2ccc(NC(C)=O)cc2)c2oc3ccccc3c2n1	10.2	-2.9	-0.2	-4.6	-41.9	0.695	i	3.3	-1.3
COc1cc([C@@H]2CC=C(C(=O)O)[C@H](c3ccc(F)cc3)N2S(=O)(=O)c2ccc(C)cc2)cc(OC)c1OC	-9.3	-6.1	-3.2	-1.1	4.9	·	i	-6.6	-1.6

The list goes on, overlapping the part above by 4 compounds.
SMILES	Beta2AR agonist	rRNA inh HTS	rRNA inh HTS OD600	rRNA inh HTS RFP	UCH37 DUB inh	Ecoli growth	FGF22 binding	ALR inh	HNF4A DNA FP
O=C(c1ccccc1F)N1CCN(c2ccccc2)CC1	-1.5	·	·	·	-3.0	0.7	·	51.4	4.6
CCOc1ccc(C(=O)NCC2CCCO2)cc1 (stereo unspecified)	15.8	·	·	·	1.5	0.683	·	-0.4	-0.4
CCc1nc(Nc2ccc(NC(C)=O)cc2)c2oc3ccccc3c2n1	10.2	-2.9	-0.2	-4.6	-41.9	0.695	i	3.3	-1.3
COc1cc([C@@H]2CC=C(C(=O)O)[C@H](c3ccc(F)cc3)N2S(=O)(=O)c2ccc(C)cc2)cc(OC)c1OC	-9.3	-6.1	-3.2	-1.1	4.9	·	i	-6.6	-1.6
Cc1cc(NC(=O)CSc2nc(C(C)C)nc3ccccc23)no1	-27.9	·	·	·	3.6	0.66	·	-2.9	3.5
CCc1ccc(C(=O)NNc2ccc(C)c(Cl)c2)cc1	1.2	·	·	·	1.6	0.658	i	-4.0	-4.1
CS(=O)(=O)Nc1cccc(NC(=O)C2Cc3c(-c4cccc(C(N)=O)c4)ccnc3O2)c1 (stereo unspecified)	·	10.9	15.7	-0.5	·	·	i	·	-0.1
Cc1ccc(S(=O)(=O)N2CCOCC2)cc1C(=O)NCCCN1CCCC1=O	·	11.7	7.9	-0.3	·	·	i	·	2.0
Cc1ccc(C(c2nnnn2Cc2cccs2)N2CCN(Cc3ccc4c(c3)OCO4)CC2)cc1 (stereo unspecified)	6.8	·	·	·	1.2	0.74	·	0.4	0.9
Cc1cccc(NC(=O)c2ccc(-c3ccccc3[N+](=O)[O-])o2)c1	0.1	-32.0*	-15.9*	0.3*	3.1	0.658	+	-6.1	-1.7
CCC(C)(C)C1CCC2(CC1)NC(=O)N(CC(=O)Nc1cc(C(F)(F)F)ccc1N1CCOCC1)C2=O (stereo unspecified)	6.7	8.4	9.1	-0.6	-4.5	0.722	i	1.5	-1.0
COc1cc(-c2noc(C)c2C#CC2(O)CCCCC2)cc(OC)c1OC	8.9	-46.0	-75.8	-18.2	4.0	0.702	i	-10.7	0.6
O=C(c1ccccc1)c1ccc(Oc2ncccn2)cc1	-14.3	·	·	·	3.0	0.657	·	-2.0	-1.9
COC(=O)C1CCN(CC(=O)NC(=O)NC2CCCCC2)CC1	3.7	9.2	13.3	0.9	-1.1	0.682	·	-7.9	0.6
COC(=O)C(Cc1ccccc1)NC(=O)c1cc(S(=O)(=O)N(C)C)ccc1Cl (stereo unspecified)	-4.7	-0.9	10.1	1.7	0.4	0.691	i	0.5	-0.4
COc1ccc(-c2nc(C(N)=O)c3[nH]c(=O)n(-c4ccccc4OC)c3n2)c(OC)c1	-6.6	-9.9	-7.0	1.6	6.5	0.772	i	-9.8	6.3
COc1ccc(-c2c(C)[nH]n3c(=O)c(Cc4ccccc4)c(C)nc23)cc1	20.7	·	·	·	2.3	0.756	i	·	2.1
Cn1c(SCc2cc(=O)n3cc(Br)ccc3n2)nnc1C1COc2ccccc2O1 (stereo unspecified)	-9.3	·	·	·	1.0	0.729	·	0.8	-7.5
Cn1cc(C(N)=O)c2ccccc21	0.2	3.5	6.3	3.3	2.2	0.72	i	-7.8	4.0
Cc1nccc(-c2ccc(-n3c(C)ccc3C)cc2)n1	-6.1	2.2	-0.7	-4.4	2.4	0.703	i	1.7	4.5
CCOC(=O)C1(Cc2ccc(OC)cc2)CCN(C(=O)CN2CCCCC2=O)CC1	17.7	7.0	14.3	1.2	6.5	0.719	i	-6.4	-0.2
CC(C)NC(=O)CN1CCN(C(=O)c2ccc3oc(CCCc4ccccc4)nc3c2)CC1	8.1	-0.4	-6.7	-2.0	2.1	0.652	i	1.7	0.1
CC(=O)c1ccc2c3c(ccc(O)c13)CC2	5.1	-10.8	-14.2	20.2	1.1	0.68	·	7.0	4.8
CCCCSc1nc(C(=O)O)cc(=O)[nH]1	4.0	10.2	4.5	-1.7	0.3	0.681	i	-14.3	-2.4
O=C1NCCN(Cc2ccc(Cl)c(F)c2)C1CC(=O)N1CCCCO1 (stereo unspecified)	0.4	21.0	10.4	1.4	-7.2	0.711	i	-22.2	-4.1
O=C(CSc1nccn1Cc1ccco1)Nc1ccc(F)cc1	-2.6	8.5	2.5	11.2	3.2	0.681	i	99.1*	3.0
COCCN(Cc1nc2ccccc2c(=O)[nH]1)C(=O)c1cccc(S(=O)(=O)N2CCCC2)c1	-1.9	7.0	4.9	0.4	1.8	0.643	i	·	0.7
Cc1ccc(C(=O)O)cc1NC(=O)c1ccc(Cn2nc(C)c(Cl)c2C)o1	0.1	17.4	-0.3	2.8	2.6	0.701	i	-1.5	-2.8

Compound profiles (already shown). Screens in order: Beta2AR agonist, rRNA inh HTS, rRNA inh HTS OD600, rRNA inh HTS RFP, UCH37 DUB inh, Ecoli growth, FGF22 binding, ALR inh, HNF4A DNA FP
Entry for Cc1ccc(C(=O)O)cc1NC(=O)c1ccc(Cn2nc(C)c(Cl)c2C)o1 : 0.1, 17.4, -0.3, 2.8, 2.6, 0.701, i, -1.5, -2.8
Entry for CC(=O)c1ccc2c3c(ccc(O)c13)CC2 : 5.1, -10.8, -14.2, 20.2, 1.1, 0.68, ·, 7.0, 4.8

The list goes on.
SMILES	Beta2AR agonist	rRNA inh HTS	rRNA inh HTS OD600	rRNA inh HTS RFP	UCH37 DUB inh	Ecoli growth	FGF22 binding	ALR inh	HNF4A DNA FP
O=C(NCCc1ccccc1)C1COc2ccccc2O1 (stereo unspecified)	-16.3	-8.0	4.1	-1.3	2.5	0.671	i	-1.7	-6.3
Cc1c(C)n(CC(O)CN2CCOCC2)c2ccccc12 (stereo unspecified)	-3.9	10.2	8.5	1.7	4.5	0.678	i	63.8	0.6
COc1ccc(NC(=O)CCc2nc(-c3ccccc3F)no2)cc1	0.8	·	·	·	1.3	0.672	·	-9.7	0.7
CCc1c(O)nc(SCC(=O)Nc2ccc(OC)cc2)n(C2CCCCC2)c1=O	3.5	·	·	·	4.6	0.686	·	98.6*	-2.1
O=C(CSc1nnc(COc2ccccc2)o1)c1ccccc1	3.2	·	·	·	0.6	0.654	·	9.9	-2.6
CCCc1c(C(=O)N/N=C(\C)c2ccccn2)nnn1-c1nonc1N	·	7.4	5.4	-2.5	·	·	i	·	-2.4
S=c1[nH]c2ccccc2n1CCOc1ccccc1	5.5	-23.6	-21.4	-4.4	3.0	0.68	i	-5.3	3.6
CC(=O)C[C@@H](O)CC(=O)[C@@H]1OC(=O)CC/C=C\Cc2ccccc21	12.9	9.1	-1.7	-2.3	0.3	·	i	-4.3	-2.6
Cc1ccccc1NC(=O)CN(C)S(=O)(=O)c1cccs1	3.1	0.8	1.2	-2.5	-0.6	0.645	i	-7.3	6.0
Cc1cc(C)c(S(=O)(=O)c2ccc(F)cc2)c(C)c1	·	7.9	-29.8	-14.5	·	·	i	·	0.1
Cc1cc(C)nc(NS(=O)(=O)c2ccc(NC(=O)C3COc4ccccc4O3)cc2)n1 (stereo unspecified)	4.0	-0.3	-10.7	-3.2	0.9	0.667	·	-0.1	0.2
O=C(c1ccc2nc[nH]c2c1)N1CCc2ccccc2C1	-5.7	-10.5	3.0	-3.4	-2.5	0.714	i	10.1	2.9
O=S1(=O)C=C(SCc2ccccc2)Nc2ccccc21	-4.6	·	·	·	1.1	0.685	·	·	2.5
COc1ccc(C(C)=O)cc1COC(=O)CCCN1C(=O)c2ccccc2C1=O	-2.8	-18.6	-19.5	-2.0	0.4	0.657	i	8.4	-3.1
O=C(NNC(=O)c1ccccc1-n1cccc1)c1ccc(Cl)cc1	-2.1	·	·	·	-0.7	0.744	·	·	4.0
COC(=O)c1oc2c(c1C)C1(CCC2)SCCS1	2.5	·	·	·	0.0	0.693	·	-56.8	-0.4
CC(=O)Nc1c2c(nn1-c1cccc(Cl)c1)CS(=O)C2 (stereo unspecified)	-0.1	4.7	13.2	-3.0	6.0	0.732	i	-0.1	-0.2
Cc1nn(Cc2ccccc2Cl)c2sc(C(=O)Nc3nccs3)cc12	-1.2	·	·	·	-79.5	0.665	·	-0.7	1.4
CCCCC[C@@H](C)N1C[C@H](COCc2ccccc2)Oc2cc(N3CCC[C@H]3COC)ccc2S1(=O)=O	·	4.8	4.3	-4.4	·	·	i	·	-2.0
CC(=O)c1c(C)[nH]c(C(=O)CSc2nnc(C3CCCCC3)n2N)c1C	0.0	·	·	·	4.1	0.717	·	·	0.2
COC(=O)c1cccc(NC(=O)C2COc3ccccc3O2)c1 (stereo unspecified)	-5.1	·	·	·	0.6	0.701	·	-4.7	3.1
O=C(CSc1nc2ccccc2c(=O)[nH]1)N1CCCCCC1	-10.8	·	·	·	2.0	0.687	·	-5.7	1.7
Nc1cc(=O)[nH]c(SCC(=O)Nc2nc3ccc([N+](=O)[O-])cc3s2)n1	·	·	·	·	9.1	0.726	·	-16.5	·
CCCCOc1ccc(C(C)NC(=O)CCS(=O)(=O)Cc2ccc(C)cc2)cc1 (stereo unspecified)	-25.5	·	·	·	1.3	0.728	·	-6.8	2.8
COc1ccc([N+](=O)[O-])cc1NC(=S)NC(=O)C(C)(C)C	-10.7	8.2	4.8	0.4	3.0	0.7	i	-3.3	-0.3
O=C(NCc1cccc(Cl)c1)c1ccc(-n2cncn2)c2ccoc12	·	0.1	-11.1	-6.5	·	·	i	·	-1.2
COc1ccc(N2CCN(c3cc(C)c4ccc(C)cc4n3)CC2)cc1	19.4	-6.1	2.6	-1.1	·	·	i	0.0	7.9
COc1ccccc1NC(=O)c1ccc(NC(=O)COC(=O)c2cncc(Br)c2)cc1	-4.4	6.2	14.2	3.3	-0.2	0.657	i	27.9	2.0
COc1cccc(/C=N/NC(=O)NC23CC4CC(CC(C4)C2)C3)c1O	0.6	·	·	·	·	·	·	44.0	3.7
